# Screening data (PubChem BioAssay)
# HNF4A DNA FP – change in binding of human HNF4 alpha to DNA. AID 1224865. activity change, % at 10 µM. 0.3% of 360,000 active. HNF4a-FITC DNA binding, fluorescence polarization, 1 h. P41235; in the data active = activity change above about 30%, passing the limit was not always enough;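 also: controls were the assay level and a saturating level of protein; the project sought stronger binding though the title names inhibitors; some compounds called inactive have numbers as strong as hits; positive values seem to mean higher polarization but the record does not say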
# Target sequence (P41235 whole entry, looked up): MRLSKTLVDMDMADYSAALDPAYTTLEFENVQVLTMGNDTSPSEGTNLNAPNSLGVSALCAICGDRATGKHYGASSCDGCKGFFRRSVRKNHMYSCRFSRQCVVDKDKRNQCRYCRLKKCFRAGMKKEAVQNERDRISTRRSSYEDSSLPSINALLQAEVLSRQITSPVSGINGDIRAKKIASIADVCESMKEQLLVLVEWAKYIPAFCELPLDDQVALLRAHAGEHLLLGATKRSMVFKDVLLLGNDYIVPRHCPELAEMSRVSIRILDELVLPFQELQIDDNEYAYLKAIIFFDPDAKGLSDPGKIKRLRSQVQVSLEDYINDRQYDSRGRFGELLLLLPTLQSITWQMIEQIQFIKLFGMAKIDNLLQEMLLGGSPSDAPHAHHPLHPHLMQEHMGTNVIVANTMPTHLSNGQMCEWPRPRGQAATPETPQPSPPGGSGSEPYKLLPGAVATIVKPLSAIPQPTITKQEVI
# FGF22 binding – shifts melting point of recombinant human FGF22; Q9HCT0; recombinant FGF22 thermal shift, SYPRO orange fluorescence; percent of sucrose octasulfate shift, DMSO zero; calls only at 9.99 µM; 1.5% of 340,000 active;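 active = melting point raised past a set limit in the mean and every replicate; inconclusive = no clear call; three in four hits are not shown here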
# AF4-AF9 inh – MLL-AF4/AF9 protein interaction inhibition; P42568; AlphaScreen, biotin-AF4 peptide binding to FLAG-AF9; inhibition, % at 10 µM; 0.47% of 350,000 active; AID 651704;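 active = every replicate reaching a set inhibition limit, whatever the replicate mean, cut at about 25% in these data; inconclusive = mean inhibition reaches that limit but some replicates miss it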;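 also: 0% = plate neutral control median and 100% = total signal loss; the record names both 10 and 1 µM as test concentration; the first replicate is given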
# Target sequence (P42568 whole entry, looked up): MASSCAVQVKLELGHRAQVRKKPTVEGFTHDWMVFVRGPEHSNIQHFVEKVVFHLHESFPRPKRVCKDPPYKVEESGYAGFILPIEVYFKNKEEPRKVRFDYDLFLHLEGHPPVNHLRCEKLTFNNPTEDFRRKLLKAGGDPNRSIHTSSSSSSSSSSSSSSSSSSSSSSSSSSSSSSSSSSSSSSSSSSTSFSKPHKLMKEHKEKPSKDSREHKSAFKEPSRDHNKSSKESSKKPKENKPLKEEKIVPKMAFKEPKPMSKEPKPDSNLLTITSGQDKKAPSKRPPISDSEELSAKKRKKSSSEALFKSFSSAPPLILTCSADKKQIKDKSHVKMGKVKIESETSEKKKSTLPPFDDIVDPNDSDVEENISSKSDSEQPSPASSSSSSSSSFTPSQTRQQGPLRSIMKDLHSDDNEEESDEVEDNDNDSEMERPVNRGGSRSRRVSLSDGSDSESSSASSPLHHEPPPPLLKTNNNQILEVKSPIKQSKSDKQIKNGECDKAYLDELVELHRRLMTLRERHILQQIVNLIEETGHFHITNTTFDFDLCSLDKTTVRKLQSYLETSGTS
# Ecoli rRNA inh – inhibitors of bacterial rRNA selective over humanized ribosomes; E. coli WT GFP vs humanized-ribosome RFP mutants, fluorescence, 24 h; active compounds read low; DMSO median 0, no signal -100; 1.6% of 350,000 active; GFP signal change (wild-type ribosome), % (test concentration not listed); AID 720706;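 active = significant combined selectivity score with lowered wild-type GFP, culture density cut under 30%, mutant RFP and density less affected; inactive = any of these conditions unmet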; also: one replicate is shown; some compounds called inactive have numbers as strong as hits
# ALR inh – inhibitors of human sulfhydryl oxidase ALR; inhibition, % (concentration not given with the values); 3.8% of 290,000 active; AID 485317; purified ALR, DTT oxidation, H2O2 HRP-luminol luminescence;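 active = mean and each replicate at 75% or more; inconclusive = only one of the two met; inactive = neither met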;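 also: stock transfer was 7.5 nL into about 7.5 µL; 0% = neutral wells and 100% = wells with inactivated enzyme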
# Ecoli growth – blocks Escherichia coli growth; OD600, 23 h; active compounds read low; OD600 absorbance (concentration not given with the values); 0.21% of 330,000 active;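 active = OD600 absorbance below the run mean of sample wells minus 3.6 SD, in any replicate, cut at about 0.56 in these data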;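 also: stock transfer was 300 nL into about 60 µL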
# Vif A3G – inhibitors of Vif binding to APOBEC3G peptide, primary screen, biochemical, TR-FRET, GST-Vif 1-94, biotin-A3G peptide, dose response retest (AID 1117319). TR-FRET GST-Vif / biotin-A3G peptide binding; higher % means a stronger effect; test concentration not given here; strong numbers were not always called active. inhibition, %, or IC50 in µM where a hit was titrated. 0.57% of 260,000 active;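 active = above the screen mean plus three standard deviations and confirmed in dose response; inconclusive = results disagree or hit not tested in dose response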;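 also: Vif residues 1-94 fused to GST binding biotinylated APOBEC3G peptide 110-148; 0% = full assay without inhibitor and 100% = GST in place of GST-Vif; retest series ran down from 100 µM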
# Ecoli rRNA inh OD600 – second read-out of Ecoli rRNA inh, no call of its own (marks repeat the call); OD600 change, %; measured here: OD600 growth;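 optical density of the mix in the first replicate; 0 = DMSO median and -100 = no signal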
# Ecoli rRNA inh RFP – recorded beside Ecoli rRNA inh, whose call it bears; RFP signal change, %; measured here: RFP humanized mutant strains;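 first replicate; 0 = DMSO median and -100 = no signal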
# * marks the source's active call; other numbers are inactive results; i = inactive; ? = inconclusive; / = no result given; & = joins results of further samples. Not all compounds are listed; the hit share may differ from the screen's.
SMILES,HNF4A DNA FP,FGF22 binding,AF4-AF9 inh,Ecoli rRNA inh,Ecoli rRNA inh OD600,Ecoli rRNA inh RFP,ALR inh,Ecoli growth,Vif A3G
O=C(Nc1ccc2c(c1)[C@H]1C[C@H](CC(=O)N3CCOCC3)O[C@H](CO)[C@H]1O2)C1CCOCC1,/,i,0.3,2,4,-4.0,/,/,/
COc1ccccc1CNc1nc(NCc2cccs2)nc2ccsc12,3.7,i,0.9,-59,-80,-20,/,/,/
Cc1cc(NC(=O)CSCC(=O)OCC(=O)c2cccc(Br)c2)no1,14,i,-1.7,16,10,17,4,0.68,1%
CCSc1nc(C)nc2sc(C)c(C)c12,3.7,i,-5.7,2,-6,-5.7,-3,0.71,-1%
CN1C(=O)NC(c2ccccc2)(C(F)(F)F)S/C1=C(/C#N)c1nnc(N2CCOCC2)n1-c1ccccc1 (centres undefined),3.0,i,1.3,-12,-4,2.0,8,0.73,6%
COc1cc2c(cc1OC)-c1cc(NC3CC3)nc(=O)n1CC2,3.3,/,/,/,/,/,-9,0.68,-1%
COc1ccc(C(C)=O)cc1CN(c1ccccc1OC)S(=O)(=O)c1cccs1,5.7,i,0.5,-13,-26,1.5,-1,0.66,/
CCc1nc(NCCN)c(C#N)c2c1CSC(C)(C)C2,0.1,/,/,/,/,/,-39,0.73,10%
C[C@@H]1CN([C@H](C)CO)C(=O)c2cccc(NC(=O)c3nc4ccccc4s3)c2O[C@H]1CN(C)S(=O)(=O)c1ccc(F)cc1,/,i,-28,-6,-2,-4.5,/,/,/
O=c1c(-c2ccccc2)c[nH]n1-c1cccc([N+](=O)[O-])c1,3.7,i,4.1,-12,-10,-1.9,70,0.67,/
COc1ccc([N+](=O)[O-])cc1NC(=O)C(C)OC(=O)C1c2ccccc2Oc2ccccc21 (centres undefined),1.1,/,/,/,/,/,-16,0.73,-3%
CCC(=O)N1CC2(C1)[C@@H](c1ccc(-c3cccc(OC)c3)cc1)[C@@H](CO)N2C(C)=O,/,i,-1.1,3,3,0.7,/,/,/
COC(=O)CC1COc2ccccc2N1S(=O)(=O)c1ccc(OC)cc1 (centres undefined),0.7,i,?,-10,-7,6.2,/,0.69,-9%
CC/C(=C(/c1ccccc1)c1ccc(OCC[N+](C)(C)C)cc1)c1ccccc1,7.5,i,20,-60,-79,-18,/,/,-13%
CCOC(=O)c1c(C)[nH]c(C)c1C(=O)CSc1nc2ccccc2n1CC,3.4,i,6.1,-8,-4,7.6,3,0.69,/
COc1ccc(S(=O)(=O)N(C)c2ccc(C(=O)NCc3ccncc3)cc2)cc1,-3.7,i,4.5,-2,-5,2.9,-1,0.74,/
S=C1Nc2ccccc2CS1,-4.7,i,1.9,3,13,0.3,/,/,0%
COC(=O)CCC(=O)Nc1ccc(S(=O)(=O)Nc2cc(OC)nc(OC)n2)cc1,1.6,i,-4.8,12,8,-2.5,-17,0.69,5%
COC(=O)C1(C(=O)OC)CCCCN(S(=O)(=O)c2ccc(C)cc2)CCC1,2.1,i,-5.7,/,/,/,/,/,/
CCOC(=O)Cc1csc(/N=C/c2c(O)n(-c3ccc(C)cc3C)c(=O)c3ccccc23)n1,4.3,i,5.6,6,21,-0.1,-3,0.67,19%
COc1cc(CCC(=O)Nc2cc(C)cc(C)c2)cc(OC)c1OC,2.9,i,-0.6,/,/,/,-9,0.66,5%
CCCCOc1ccc(C)cc1CN(CCO)CCO,-0.7,/,/,/,/,/,-1,0.7,-1%
COCC(=O)Nc1nc(-c2ccccc2)ns1,-14,/,/,/,/,/,-1,0.65,-6%&11%
O=C(CSc1nc2ccccc2n1CC(=O)N1CCCCC1)N1CCCCC1,2.6,i,-4.2,7,3,0.6,-1,0.75,-2%
COc1ccc(C)cc1NC(=O)c1nnn(Cc2cc(C)ccc2C)c1N,6.7,i,-1.9,2,5,-1.1,/,0.74,-5%

# Of the compounds above, these contain a thiophene ring, fused or not.
SMILES,HNF4A DNA FP,FGF22 binding,AF4-AF9 inh,Ecoli rRNA inh,Ecoli rRNA inh OD600,Ecoli rRNA inh RFP,ALR inh,Ecoli growth,Vif A3G
COc1ccccc1CNc1nc(NCc2cccs2)nc2ccsc12,3.7,i,0.9,-59,-80,-20,/,/,/
CCSc1nc(C)nc2sc(C)c(C)c12,3.7,i,-5.7,2,-6,-5.7,-3,0.71,-1%
COc1ccc(C(C)=O)cc1CN(c1ccccc1OC)S(=O)(=O)c1cccs1,5.7,i,0.5,-13,-26,1.5,-1,0.66,/

# Next section
SMILES,HNF4A DNA FP,FGF22 binding,AF4-AF9 inh,Ecoli rRNA inh,Ecoli rRNA inh OD600,Ecoli rRNA inh RFP,ALR inh,Ecoli growth,Vif A3G
COc1cc(NC(=O)COc2c(C)cc(C)cc2[N+](=O)[O-])c(OC)cc1Cl,3.4,i,1.4,11,3,-0.5,-7,0.69,/
O=C(O)CCC(=O)N1c2ccccc2NC2=C(C(=O)CC(c3ccc(F)cc3)C2)C1c1ccc([N+](=O)[O-])o1 (centres undefined),-0.8,i,-0.1,9,9,5.2,-20,0.68,/
COC(=O)c1cccc(OC(N)=O)c1,/,/,/,/,/,/,-3,0.65,-2%
CSCCC(NC(=O)c1ccc(Cl)cc1Cl)C(=O)N1CC(C)OC(C)C1 (centres undefined),-4.6,i,1.0,9,17,-1.2,3,0.67,-5%
N#CCC(=O)Nc1ccc(C(=O)OCC(=O)N2CCN(C(=O)c3ccco3)CC2)cc1,13,i,-2.9,/,/,/,100*,0.72,-1%
O=C(CCC(=O)N1CCN(c2ccccc2F)CC1)c1ccc(F)cc1,1.9,i,-5.0,-10,-7,-3.5,2,0.68,1%
O=C(Nc1cccc(F)c1)N1C[C@@H]2[C@H](c3ccccc31)[C@H](CO)N2C(=O)Cc1ccccn1,/,i,2.5,-18*,2.3*,3.7*,/,/,/
CN1CCN(C(=O)/C=C/c2cn(-c3ccccc3)nc2-c2ccc3c(c2)OCCO3)CC1,2.4,i,19,-27,-31,-2.4,-21,0.66,14%
Cc1noc(C)c1NC(=O)Nc1ccc2c(c1)C(=O)N([C@H](C)CO)C[C@@H](C)[C@H](CN(C)C(=O)NC1CCCCC1)O2,/,i,-9.0,3,3,-0.4,/,/,/
O=C(N/N=C/c1cccc(Cl)c1)c1c(O)c2c([nH]c1=O)CCCC2,-1.6,i,-8.3,-1,9,6.0,-25,/,-4%
CSc1ccc(CNC(=O)CCn2ccc3cc(S(=O)(=O)N4CCCC4)ccc32)cc1,-1.1,i,1.9,-23,-20,3.7,-5,0.68,/
CSc1n[nH]c(NCc2cccs2)n1,3.9,i,1.3,8,4,-0.6,2,0.73,-3%
O=C(Nc1ccc(Br)cn1)c1cccc(C(=O)Nc2ccc(Br)cn2)c1,7.4,i,-2.2,7,21,2.1,-3,0.7,-16%
COC(=O)[C@]12CCCCC=C1N(Cc1ccc3c(c1)OCO3)C(=O)[C@H](CC(=O)NCC1CCCCC1)C2,-2.1,i,4.9,-19,-23,5.8,/,/,/
COCC(=O)Nc1ccc2c(c1)[C@@H]1C[C@@H](CC(=O)N3CCOCC3)O[C@@H](CO)[C@@H]1O2,/,i,-1.9,2,1,0.4,/,/,/
CC(C)CCNC(=O)c1ccc(Cn2c(=S)[nH]c3ccccc3c2=O)cc1,0.9,i,-3.3,1,2,0.6,/,0.69,-22%
Cc1ccc(S(=O)(=O)N(C)C[C@H]2Oc3ccc(NS(=O)(=O)c4ccc(F)cc4)cc3CC(=O)N([C@@H](C)CO)C[C@@H]2C)cc1,/,i,-1.3,-5,-10,-0.2,/,/,/
O=C(Nc1ccccc1Cl)c1cc(C2CCCCN2C(=O)OCCF)on1 (centres undefined),1.9,i,1.5,-1,-13,1.3,/,/,/
COc1ccc(S(=O)(=O)N(C)C[C@@H]2Oc3ccc(NC(=O)CCN4CCOCC4)cc3CC(=O)N([C@H](C)CO)C[C@@H]2C)cc1,/,i,-2.5,2,10,0.2,/,/,/
O=C(Nc1ccc(COc2ccccc2)cc1)Nc1cccc(C(=O)O)c1,2.2,i,-1.8,-4,1,-1.3,-5,0.64,-4%
CCCOC(=O)c1ccc(NC(=O)CCC(=O)OCC)cc1,0.9,/,/,/,/,/,-4,0.66,32%
Cn1c(=O)n(Cc2ccc(F)cc2)c(=O)c2c1nc1n2CCCN1C1CCCCC1,-0.6,/,/,/,/,/,-5,0.77,-3%
CCOc1ccc(CN(C(=O)c2oc3cc(C)ccc3c2C)C2CCS(=O)(=O)C2)cc1 (centres undefined),-3.0,/,/,/,/,/,-15,0.71,3%
O=S(=O)(c1ccc2ccccc2c1)N1CCC(c2nc(-c3ccncc3)no2)CC1,-1.8,i,-5.5,9,6,3.9,-6,0.69,-12%
CC=Cc1ccc2n(c1=O)C[C@@H]1[C@@H](CO)[C@H](C(=O)NCC3CC3)[C@H]2N1Cc1ccccc1 (mixture of isomers),/,i,-15,0,6,-3.7,/,/,/

# More records follow.
SMILES,HNF4A DNA FP,FGF22 binding,AF4-AF9 inh,Ecoli rRNA inh,Ecoli rRNA inh OD600,Ecoli rRNA inh RFP,ALR inh,Ecoli growth,Vif A3G
COc1ccc(C)cc1S(=O)(=O)Nc1ccc2c(c1)N(C(C)=O)CCC2,1.4,i,0.0,-2,-7,3.3,/,0.68,0%
CCOC(=O)C1=C(C)N(c2ccccc2)C(=O)NC1c1cccc([N+](=O)[O-])c1 (centres undefined),2.8,/,/,/,/,/,/,0.68,4%
O=c1cc[nH]c2cccc(Cc3ccccc3)c12,-1.1,/,/,/,/,/,1,0.56,1%
CC(=O)C1=C(C)NC(SCSc2ccccc2)=C(C#N)C1c1cccnc1 (centres undefined),/,/,/,/,/,/,-3,0.67,1%
CN1c2ccc(-c3cccc(F)c3)cc2[C@@H]2[C@@H](CCN2C(=O)CC2CC2)[C@@H]1CO,/,i,14,-46,-76,-12,/,/,/
CCCCN(C)c1c(C)nc2ccc(C(=O)N3CCN(C(C)=O)CC3)cn12,-0.6,i,-0.1,0,3,-1.9,/,/,/
Cc1noc(C)c1NC(=O)N(C)C[C@@H]1Oc2c(NS(=O)(=O)c3ccc(Cl)cc3)cccc2C(=O)N([C@H](C)CO)C[C@@H]1C,/,i,-5.9,3,4,-2.0,/,/,/
C=CCN1C(=O)C(Cc2ccc(F)cc2)S/C1=N/N=C/c1ccco1 (centres undefined),1.9,i,1.3,18,9,-4.4,0,/,-11%
CCCCCC(=O)N1C[C@@H](O)[C@H](n2cc(C3CC3)nn2)C[C@@H]1c1ccc(OC)cc1,-1.8,i,0.8,/,/,/,/,/,-2%
Cc1ccc(NC2Nc3cc(C)nn3S2)c(C)c1 (centres undefined),1.5,i,-0.4,-9,-3,-0.7,87*,0.71,0%
Fc1ccc(CNc2nc3ccccc3n3nnnc23)cc1,-20,i,-20,4,8,-3.8,-18,0.8,-9%
COc1ccc(N(C)C(=O)c2cn(C)c(=O)c3cc(OC)c(OC)cc23)cc1,1.2,i,-2.3,5,9,-1.4,-18,0.68,12%
COC(=O)N1C(=O)[C@](c2ccc(OC)cc2)(C(C)C)N1C(=O)OC,-4.4,i,2.3,-1,5,-7.9,/,0.81,/
COc1ccccc1C(CCNCc1ccccc1)c1ccc(OC(C)C)cc1 (centres undefined),-5.6,i,9.1,-49,-77,-6.0,-4,0.64,-8%
OCC1(CCOc2ccccc2)CCN(CCCn2cccn2)CC1,3.8,i,-0.5,/,/,/,-1,0.68,6%
Cc1ccc(/C=N\NC(=O)Cc2cccn2C)o1,3.5,i,1.4,16,9,2.7,13,/,7%
Nc1nc(Nc2ccccc2)nc2ccccc12,-0.2,/,/,/,/,/,-6,0.53*,4%
